Bioassay records from PubChem.
A488 autofl: qHTS Assay for Spectroscopic Profiling in A488 Spectral Region; hit rate 0.1% among 59,000; AID 591, 2007; max dye equivalency, M; compound autofluorescence, A488 spectral region, dye equivalency; stronger effect = higher value; active = above 10 nM dye equivalent; inconclusive = 1 to 10 nM; inactive = 1 nM or less; about half of its hits are not listed in these tables;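 also: highest value over a series up to 38 µM; compound alone in buffer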
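Read-out: relative fluorescence at 480/540 nm, expressed as Alexa 488 dye-equivalent concentration from a six-point A488 standard included per plate. Conditions: 100 mM Tris, pH 8.0; 15 min incubation, room temperature.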
A647 autofl: qHTS Assay for Spectroscopic Profiling in A647 Spectral Region; Compound fluorescence, A647 channel (570/671 nm), Tris buffer; 59,000 tested, under 10 active; max dye-equivalent concentration, M; AID 592, 2007; active means above 1 µM dye equivalent; inconclusive means 0.1 to 1 µM; inactive means 0.1 µM or less;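 also: values scaled relative to a standard on each plate; highest value over a series up to 38 µM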
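Buffer was dispensed, compounds and Alexa 647 standards were pin-transferred, and plates sat 15 min at room temperature. Intensity at 570/671 nm was then converted to dye-equivalent concentration using the plate's A647 standard curve.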
AID923: qHTS Assay for Allosteric/Competitive Inhibitors of Caspase-1: Spectroscopic Profiling in AFC Spectral Region; compound fluorescence, AFC spectral region (405/520 nm); almost no hit is shown here; hit rate 1.1% among 75,000; Potency, µM (top dose mostly 57.5 µM), inactives show at the highest dose fluorescence increase, actives largely listed as activators; active = well fitted activation curve with a large enough effect; inconclusive = small, poorly fitted or top-dose-only effect;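 also: potency is read from the fitted curve at half-maximal effect; 0% is about no effect; scaled to a free AFC standard on each plate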
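Compound autofluorescence profiled at 405 nm ex/520 nm em during kinetic caspase 1 run (50 nM enzyme, 5 uM Ac-WEHD-AFC, HEPES pH 7.5, 10 mM DTT). Titration up to 57 uM; baseline from regression intercept, normalized to AFC standard curve.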
Resorufin autofl: qHTS Assay for Spectroscopic Profiling in Resorufin Spectral Region; Compound fluorescence, resorufin region 547/598 nm, buffer; stronger effect = higher value; max dye-equivalent concentration, M; hit rate 0.04% among 59,000; AID 588, 2007; active = above 10 nM dye equivalent; inconclusive = 1 to 10 nM; inactive = 1 nM or less; a few of its hits are not listed in these tables; also: highest value over a series up to 38 µM
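Compounds in 100 mM Tris buffer, pH 8.0, incubated 15 min at room temperature, then read with 547 nm excitation and 598 nm emission filters. Fluorescence was converted to dye-equivalent concentration using an on-plate six-point resorufin standard curve.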
TSHR ag: qHTS Assay for Agonists of the Thyroid Stimulating Hormone Receptor; AID 926, 2007; HEK293-CNG-TSHR cells (CNG channel as cAMP sensor), membrane potential dye, cAMP; Thyrotropin receptor (Homo sapiens), P16473; Potency, µM (highest dose often 57.1 µM), without a hit: at the top dose activation, hits mostly activators; hit rate 0.48% among 73,000; active = well fitted activation curve of enough size with the parental cells flat; inconclusive = any curve in the parental cells; inactive = parental cells flat and receptor cells flat or falling; also: potency is read from the fitted curve at half-maximal effect; % of control where 0% means no effect; weak receptor curves with flat parental cells got no call and are not listed
Target sequence (P16473 whole entry, looked up): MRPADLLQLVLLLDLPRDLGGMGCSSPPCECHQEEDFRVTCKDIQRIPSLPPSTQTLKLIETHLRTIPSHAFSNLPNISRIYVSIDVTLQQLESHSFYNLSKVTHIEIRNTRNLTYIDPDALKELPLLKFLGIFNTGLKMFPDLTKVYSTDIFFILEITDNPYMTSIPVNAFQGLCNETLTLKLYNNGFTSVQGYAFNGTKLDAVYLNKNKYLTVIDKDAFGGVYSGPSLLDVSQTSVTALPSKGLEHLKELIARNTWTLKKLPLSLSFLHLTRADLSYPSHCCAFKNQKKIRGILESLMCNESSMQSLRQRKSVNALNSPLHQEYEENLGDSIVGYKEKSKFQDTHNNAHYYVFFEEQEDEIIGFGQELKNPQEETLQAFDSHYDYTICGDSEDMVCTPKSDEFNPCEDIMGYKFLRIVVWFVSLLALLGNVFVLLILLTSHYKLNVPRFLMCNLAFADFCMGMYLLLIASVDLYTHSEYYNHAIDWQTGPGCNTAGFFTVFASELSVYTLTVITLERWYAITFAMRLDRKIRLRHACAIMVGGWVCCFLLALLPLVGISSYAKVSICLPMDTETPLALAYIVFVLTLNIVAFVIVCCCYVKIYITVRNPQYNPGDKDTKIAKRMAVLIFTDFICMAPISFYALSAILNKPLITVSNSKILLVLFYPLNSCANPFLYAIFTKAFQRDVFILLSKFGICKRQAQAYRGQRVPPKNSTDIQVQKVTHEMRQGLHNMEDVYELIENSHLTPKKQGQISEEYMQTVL
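cAMP rise detected as CNG-channel membrane depolarization by fluorescent dye (emission 590 nm), 30 min after compound, following 60 min dye loading containing 100 uM RO 20-1724 at room temperature. Cells: TSHR/CNG HEK 293, with parental CNG HEK 293 as control.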
* marks the source's active call; other numbers are inactive results; i = inactive; ? = inconclusive; / = no result given; [ ] = another dose, or the depositor's remark. This is a subset, so the mix of outcomes need not match the whole.

SMILES	A488 autofl	A647 autofl	AID923	Resorufin autofl	TSHR ag
Cc1ccc(-c2nnc(CSc3nnc(COc4ccccc4)n3-c3ccccc3)o2)cc1	i	5.4e-09	-0.4%	i	?
Cc1ncc(CSc2nc3ccccc3[nH]2)c(N)n1	i	4.9e-09	1.0%	i	1%
CC(NC(=O)Nc1ccc2c(c1)OCO2)C1CCCO1 (stereo not drawn)	i	3.5e-08	-2.1%	i	2%
CN(C)c1ccc(NC(=O)c2sc(SCC(=O)Nc3nccs3)nc2N)cc1	i	2.7e-08	/	i	/
O=S(=O)(/N=C(/Nc1cc(N2CCOCC2)ncn1)c1ccccc1)c1ccccc1	i	1.6e-09	-0.6%	i	10%
O=c1c2ccccc2nc(SCc2cccc(F)c2)n1Cc1ccco1	i	7.2e-08	-0.2%	i	?
Cc1cccc2cc(CN(CCN3CCCC3)C(=O)NC3CCCCC3)c(=O)[nH]c12	i	1.5e-08	0.4%	i	?
Cc1nn(-c2ccc(Cl)cc2)c(N)c1C(O)(CSc1nccn1C)C(F)(F)F (stereo not drawn)	i	3.5e-08	-1.1%	i	2%
COc1ccc(-n2c(=O)[nH]cc(C(=O)N3CCc4ccccc43)c2=O)cc1	i	4.3e-09	1.1%	i	28%
COc1ccccc1C(=O)Nc1nc2ccc(S(C)(=O)=O)cc2s1	/	/	0.8%	/	8%
CCC(C)Nc1nc2c(c(=O)n(C)c(=O)n2C)n1Cc1cccc(C)c1 (stereo not drawn)	i	1.2e-09	0.9%	i	2%
CCOC(=O)c1[nH]c2cc(OC)c(OC)cc2c1NC(=O)C(C)N1CCN(Cc2ccccc2)CC1 (stereo not drawn)	i	1e-09	/	i	/
Cc1cc2ncn(C(=O)c3c(-c4c(Cl)cccc4Cl)noc3C)c2cc1C	/	/	-2.5%	/	-10%
COc1ccc(CCN/C=C2/CC(=O)NC2=O)cc1OC	i	2.1e-08	1.8%	i	-4%
COc1ccc2[nH]c(C(=O)O)c(NS(=O)(=O)c3ccc(OC)c(OC)c3)c2c1	i	3.9e-09	-0.1%	i	1%
CCCC(=O)Nc1ccc(C(=O)Nc2nnc(COC)s2)cc1	i	1e-09	-1.3%	i	-5%
COc1ccc(-c2cnc(N)n2CC2CCCO2)cc1 (stereo not drawn)	i	1e-09	-1.6%	i	-5%
O=C(O)C1CCCN1C(=O)c1cccs1 (stereo not drawn)	i	1e-09	1.5%	i	-4%[11.4 µM]
COc1ccc2cc3cc(C(=O)NCC4COc5ccccc5O4)oc3nc2c1 (stereo not drawn)	i	1.2e-09	18%	i	?
Cc1onc(-c2ccccc2Cl)c1C(=O)Nc1ccccc1C(=O)NC(C)C	i	2e-08	0.2%	i	18%
COc1ccc(C(CC(=O)O)NC(=O)OC(C)(C)C)cc1 (stereo not drawn)	i	1e-09	/	i	/
Cc1nnc(Sc2cc(C(=O)NCc3ccco3)c3ccccc3n2)s1	i	1.3e-08	4.6%	i	24%
CCOc1nc(SC(C(C)=O)C(=O)Nc2ccccc2)nc(N(C)C)n1 (stereo not drawn)	i	1.6e-08	/	i	/
Cc1nc2ncnn2c(Nc2ccc3c(c2)OCCO3)c1C	i	4.6e-09	-1.5%	i	7%
Cn1c(=O)c2c(n(C)c1=O)=NC1(CCCCC1)ON=2	i	1e-09	0.1%	i	?
Going on with the list:
SMILES	A488 autofl	A647 autofl	AID923	Resorufin autofl	TSHR ag
COCOc1cc(OC)ccc1C(=O)/C=C\c1ccc2c(c1)OCO2	/	/	-0.9%[11.5 µM]	/	?
CC1=CC(C)(C)Nc2ccc(C)cc21	i	1e-09	1.3%	i	20%
Cc1nccn1CCCN1C(=O)OC2(CCCCC2)C1(C)O (stereo not drawn)	i	2.4e-08	-0.1%	i	2%
c1ccc(-c2nnc(CSc3nncs3)o2)cc1	i	4.2e-08	-0.3%	i	2%
Cc1ccc(C)c([N+](=O)[O-])c1	/	/	6.6%	/	6%
Cc1cccc(N(CC(=O)Nc2ccc(CC#N)cc2)S(C)(=O)=O)c1	i	1e-09	-0.2%	i	-6%
Cc1cccc2cccnc12	/	/	2.1%	/	2%
O=C1c2[nH]nc(-c3ccccc3O)c2C(c2ccc(F)cc2)N1Cc1ccco1 (stereo not drawn)	i	4.1e-09	-1.1%	i	?
COCCSc1nnc(-c2cnccn2)o1	i	1.8e-08	-0.5%	i	4%
COc1cc(C)cc2c(-c3c(O)cc(O)c4c3C[C@H](C)N[C@@H]4C)cc(-c3cc(-c4c(O)cc(O)c5c4C[C@H](C)N[C@@H]5C)c4cc(C)cc(OC)c4c3O)c(O)c12	i	1.2e-08	2.5%[11.5 µM]	i	4%[11.4 µM]
CCCCCN=c1ccn(Cc2ccccc2)c2ccccc12	/	/	-0.3%	/	?
CCn1c(SCC(=O)N2CCCc3ccccc32)nc2cccnc21	i	1.9e-09	-2.8%	i	1%
CCCc1nnc(NC(=O)CCC(=O)Nc2ccc(F)cc2)s1	i	8.7e-09	-1.4%	i	-2%
CC1CCCC(NC(=O)CN2CCN(Cc3ccc(Cl)cc3)C2=O)C1C (stereo not drawn)	i	1e-09	-1.6%	i	6%
Cc1ccc(NC(=O)C2CCCN(S(=O)(=O)c3c(C)noc3C)C2)cc1F (stereo not drawn)	i	1e-09	-1.4%	i	-8%
CCN1C(=O)c2cccc3c(NC(=O)c4ccc5c(c4)OCCO5)ccc1c23	?	2.6e-09	14%	i	/
COc1ccccc1Cn1cnc2cccnc21	i	1.5e-08	1.4%	i	4%
C=N[C@H](C(=O)N[C@@H]1C(=O)N2[C@@H]1SC(C)(C)[C@@H]2C(=O)O)c1ccccc1	i	3.3e-09	3.4%[25.7 µM]	i	-8%[25.6 µM]
COc1ccc(-c2noc(-c3cc(Cl)ccc3Cl)n2)cc1OC	i	1e-09	0.0%	i	10%
CCCOc1ccc(N2CC(C(=O)Nc3ncccc3C)CC2=O)cc1 (stereo not drawn)	i	2.8e-08	-0.2%	i	3%
COC(=O)c1cccc(C(=O)Oc2cccc(Br)c2)n1	i	1e-09	0.7%	i	4%
CSc1ncccc1C(=O)OCC(=O)N1CCOCC1	i	2.3e-08	-1.5%	i	-8%
Cc1ccccc1-c1cc(NCc2ccccc2)ncn1	i	1e-09	1.9%	i	?
CCOC(=O)N1CCC(N2Cc3cccc(C(=O)NCc4ccc(OC)cc4)c3C2=O)CC1	i	3.7e-08	-1.2%	i	8%
CCOC(=O)CNS(=O)(=O)c1ccc(C(=O)O)cc1	i	1e-09	1.3%	i	2%
More results
SMILES	A488 autofl	A647 autofl	AID923	Resorufin autofl	TSHR ag
COc1cc(NC(=O)N[C@H](C(=O)O)C(C)C)cc(OC)c1	i	1e-09	0.9%	i	2%
CCCCc1nc2ccccc2c(=O)n1NC(=O)c1c(O)c2cccc3c2n(c1=O)CCC3	i	1e-09	1.9%	i	6%
Cc1ccc(CC(=O)OCCNC(=O)c2cccnc2)cc1	i	1e-08	-0.4%	i	-1%
Cc1csc(=O)n1CC(=O)OCc1cccc2ccccc12	i	1e-09	-1.9%	i	7%
COc1ccc(CNc2nc3c(c(=O)n(Cc4ccc(Cl)cc4)c(=O)n3C)n2C)cc1	i	1e-09	0.1%	i	-5%[11.4 µM]
COC(=O)NCC(c1cccnc1)N1CCOCC1 (stereo not drawn)	/	/	3.0%	/	1%
O=c1[nH]c2cccnc2n1Cc1ccco1	i	4.3e-08	-0.9%	i	-4%
C=CCN1C(=O)CSc2ccc(C(=O)NCc3ccco3)cc21	i	5e-09	-0.3%	i	7%
O=C(O)CCCSc1nc2ccccc2s1	i	1e-09	-2.1%[11.5 µM]	i	-4%[11.4 µM]
Clc1ccc([C@H](Cn2ccnc2)OCc2c(Cl)cccc2Cl)c(Cl)c1	i	1.6e-08	-1.1%[25.7 µM]	i	?
CC(C)NS(=O)(=O)c1ccc(CCC(=O)NCc2cccnc2)cc1	i	5.2e-08	0.2%	i	7%
O=C(Oc1ccccc1)N1CCC2(CCCN(c3cccc(-c4ccccc4)c3)C2)CC1	i	1e-09	4.5%	i	?
Cc1cc(C)c(C)c(S(=O)(=O)NCCC(=O)O)c1C	/	/	2.2%	/	-4%
O=C(Nc1cccc(O)c1)c1ccc(Br)cc1	i	2.3e-08	1.6%	i	4%
COc1cc(OC)cc(-c2nnc(SCC(=O)N3CCCCC3)o2)c1	/	/	1.2%	/	12%
COc1nc(C)ccc1-c1noc(-c2ccccn2)n1	i	2.5e-09	-0.9%	i	-1%
CC1Cc2ccccc2N1c1ncnc2nc[nH]c12 (stereo not drawn)	/	/	-5.5%	/	-3%
CCOC(=O)C1CCN(c2ncnc3c2cnn3-c2ccc(Cl)cc2)CC1	i	1e-09	/	i	/
COc1ccccc1N1CCN(C(=O)CCCCn2c(=O)[nH]c3ccsc3c2=O)CC1	/	/	-1.0%	/	-6%
COCCn1c(=O)c(-c2ccc(OC)cc2)nc2cnc(Nc3ccccc3)nc21	i	1e-09	?	i	4%
OC[C@@H]1O[C@@H](n2cnc3c(NC4CCCC4)ncnc32)[C@@H](O)[C@H]1O	i	4.6e-08	-3.3%	i	?
CCOC(=O)c1[nH]c(C)c(C(=O)Nc2ccc(F)cc2)c1C	/	/	-3.3%	/	-1%
COc1ccc(CC(=O)Nc2nc3ccccc3s2)cc1S(=O)(=O)N1CCOCC1	i	4.5e-08	0.5%	i	-4%
COc1ccc(N(CC(=O)Nc2ccc(C)cn2)S(=O)(=O)c2c(C)nn(C)c2C)cc1	/	/	-2.2%	/	8%
CCOC(=O)C1=C(C)N(CCO)C(=O)NC1c1cccc(O)c1 (stereo not drawn)	i	1e-09	1.3%	i	-1%

Four entries drawn at random from those above, as already listed:
SMILES	A488 autofl	A647 autofl	AID923	Resorufin autofl	TSHR ag
Cc1onc(-c2ccccc2Cl)c1C(=O)Nc1ccccc1C(=O)NC(C)C	i	2e-08	0.2%	i	18%
CCCc1nnc(NC(=O)CCC(=O)Nc2ccc(F)cc2)s1	i	8.7e-09	-1.4%	i	-2%
CN(C)c1ccc(NC(=O)c2sc(SCC(=O)Nc3nccs3)nc2N)cc1	i	2.7e-08	/	i	/
CCn1c(SCC(=O)N2CCCc3ccccc32)nc2cccnc21	i	1.9e-09	-2.8%	i	1%

The list goes on.
SMILES	A488 autofl	A647 autofl	AID923	Resorufin autofl	TSHR ag
COc1ccc(C(CNC(=O)c2cc(=O)[nH]c3ccccc23)N2CCCC2)cc1 (stereo not drawn)	i	4e-08	1.2%	i	5%
CC(=O)NC(CCS(C)(=O)=O)C(=O)Nc1ccccc1Cl (stereo not drawn)	i	3.1e-08	-1.5%	i	3%
Nn1c(SCC(=O)Nc2ccccc2F)nc2ccccc2c1=O	i	1e-08	1.2%	i	?
O=C(CN1CCN(Cc2ccccc2Cl)C1=O)NCC1CCCO1 (stereo not drawn)	/	/	0.9%	/	1%
Cc1cc(NC(=O)CCc2ccc(S(=O)(=O)N3CCOCC3)cc2)n(-c2ccccc2)n1	i	7.6e-09	-1.1%	i	5%
O=C(CSc1nc2ccccc2o1)Nc1ccc(N2CCOCC2)cc1	i	1e-09	-0.9%	i	7%[11.4 µM]
CCN(CC)C(=O)CSc1nc2ccccc2c(=O)n1OC	i	1.6e-08	-0.1%	i	5%
Cc1cc(-c2ccccc2)nc2[n+]1CCN2C	i	2.3e-08	12%	i	-3%
COc1ccc(OC)c(C2C(C#N)=C(N)Oc3cc(C)n(Cc4ccccn4)c(=O)c32)c1 (stereo not drawn)	i	1.7e-09	/	i	/

Entries from the list above containing a cyano group:
SMILES	A488 autofl	A647 autofl	AID923	Resorufin autofl	TSHR ag
Cc1cccc(N(CC(=O)Nc2ccc(CC#N)cc2)S(C)(=O)=O)c1	i	1e-09	-0.2%	i	-6%
COc1ccc(OC)c(C2C(C#N)=C(N)Oc3cc(C)n(Cc4ccccn4)c(=O)c32)c1 (stereo not drawn)	i	1.7e-09	/	i	/
